# SmPrx2 inh: inhibitors of Schistosoma mansoni peroxiredoxin 2 | S. mansoni Prx2 activity coupled to TGR/GSH (TGR is thioredoxin glutathione reductase), NADPH fluorescence loss, qHTS; some inactives read as strong as hits | Potency, µM | actives 0.07% (n = 65,000) | AID 448; active means full or partial inhibition curve with a strong effect at the top dose; inconclusive means weaker partial or single-point curve; inactive means no accepted curve; also: series up to 57 µM; many of its hits are not listed in these tables
#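 Purified S. mansoni TGR and Prx2 in pH 7.4 phosphate buffer with EDTA and Tween-20 were preincubated with compounds for 15 min. Further NADPH/GSH was added, then a 2.5 mM H2O2 aliquot initiated turnover, followed kinetically by NADPH fluorescence.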
# Anthrax LT inh: anthrax lethal toxin internalization inhibition; Potency, µM (series often up to 40 µM), without a hit: at the top dose activity change, negative = inhibition, actives largely listed as inhibitors; AID 912; Cells, anthrax lethal toxin internalization, FRET ratio (460/530); actives 0.67% (n = 70,000); active = well fitted falling ratio curve with the 530 nm signal flat; inconclusive = other ratio curves, or a change in one channel alone; inactive = flat curves in the ratio and both channels; the % refers to the ratio; also: % is scaled to controls: 0 for no effect and ±100 for the full control effect; nearly all actives have a fitted effect of over 50% in size; tested in ME-180 cells; beta-lactamase reporter
# The depositor's hits bear a star; ? = inconclusive; · = no result given; & = joins results of further samples; [ ] = another dose, or the depositor's remark. Potency is read from the fitted curve at half-maximal effect.
Compound | SmPrx2 inh | Anthrax LT inh
O=C(COC(=O)Cc1cn2ccsc2n1)Nc1nc2ccccc2s1 | >57 | 3%
O=C(c1cc2nc(-c3ccco3)cc(C(F)(F)F)n2n1)N1CCCc2ccccc21 | >57 | -3%
CN(C)C(CNC(=O)CSc1nnc(-c2ccco2)o1)c1ccccc1 (stereo not given) | >57 | 17%
COc1ccc(NC(=O)N2CCCC3(CCNCC3)C2)cc1 | >57 | 0%
CSc1ncccc1C(=O)OCC(=O)Nc1cc(C(F)(F)F)ccc1N1CCOCC1 | >57 | ?
C=CCn1c(COc2ccccc2F)nnc1SCC(=O)N1CC(=O)Nc2ccccc21 | >57 | -7%
COc1ccc(-c2nn(-c3ccccc3)cc2C(=O)N2CCOCC2)cc1 | >57 | -10%
Cc1ccc(S(=O)(=O)C(C#N)c2nc3ccccc3nc2N2CCCC2)cc1 (stereo not given) | · | -24%
O=C(OCc1nnc(-c2ccccc2)o1)c1cn(-c2ccccc2)nc1-c1ccccc1 | >57 | -17%
C=CCn1c(SCc2cc(=O)n3ccsc3n2)nc2sc(C)c(C)c2c1=O | >57 | 7%
O=S(=O)(Nc1ccccc1Cl)c1ccc(F)cc1 | >57 | ?
Cc1cccc(C2N(c3nccs3)C(=O)C3CCCN32)c1 (stereo not given) | >57 | -7%
Cc1nn(-c2ccc(Cl)cc2)c(N)c1C(O)(CSc1nccn1C)C(F)(F)F (stereo not given) | >57 | 2%
Cc1cccc2cc(CN(CCN3CCCC3)C(=O)NC3CCCCC3)c(=O)[nH]c12 | >57 | 4%
O=S(=O)(/N=C(/Nc1cc(N2CCOCC2)ncn1)c1ccccc1)c1ccccc1 | >57 | -5%

# Looked up by compound from above, 2 records:
Compound | SmPrx2 inh | Anthrax LT inh
O=C(OCc1nnc(-c2ccccc2)o1)c1cn(-c2ccccc2)nc1-c1ccccc1 | >57 | -17%
CSc1ncccc1C(=O)OCC(=O)Nc1cc(C(F)(F)F)ccc1N1CCOCC1 | >57 | ?

# (cont.)
Compound | SmPrx2 inh | Anthrax LT inh
O=c1c2ccccc2nc(SCc2cccc(F)c2)n1Cc1ccco1 | >57 | -20%
ClCC(Br)CBr (stereo not given) | · | -8%
Cc1ncc(CSc2nc3ccccc3[nH]2)c(N)n1 | >57 | -13%
CC(NC(=O)Nc1ccc2c(c1)OCO2)C1CCCO1 (stereo not given) | >57 | -2%
Cc1ccc(-c2nnc(CSc3nnc(COc4ccccc4)n3-c3ccccc3)o2)cc1 | >57 | ?
O=C(O)C1CCCN1C(=O)c1cccs1 (stereo not given) | >57 | 2%
COc1ccc2cc3cc(C(=O)NCC4COc5ccccc5O4)oc3nc2c1 (stereo not given) | >57 | -23%
COc1ccc(-c2cnc(N)n2CC2CCCO2)cc1 (stereo not given) | >57 | 3%
NNC(N)=O | >57 | 1%&1%
CCCC(=O)Nc1ccc(C(=O)Nc2nnc(COC)s2)cc1 | >57 | -11%
COc1ccc2[nH]c(C(=O)O)c(NS(=O)(=O)c3ccc(OC)c(OC)c3)c2c1 | >57 | -8%
Cc1cc2ncn(C(=O)c3c(-c4c(Cl)cccc4Cl)noc3C)c2cc1C | · | -25%
COc1ccc(CCN/C=C2/CC(=O)NC2=O)cc1OC | >57 | ·
CCC(C)Nc1nc2c(c(=O)n(C)c(=O)n2C)n1Cc1cccc(C)c1 (stereo not given) | >57 | 2%
COc1ccc(-n2c(=O)[nH]cc(C(=O)N3CCc4ccccc43)c2=O)cc1 | >57 | 3%
COc1ccccc1C(=O)Nc1nc2ccc(S(C)(=O)=O)cc2s1 | >57 | -5%
Cc1nc2ncnn2c(Nc2ccc3c(c2)OCCO3)c1C | >57 | -4%
Cn1c(=O)c2c(n(C)c1=O)=NC1(CCCCC1)ON=2 | >57 | 1%
COCOc1cc(OC)ccc1C(=O)/C=C\c1ccc2c(c1)OCO2 | · | -17%[8 µM]
Cc1nnc(Sc2cc(C(=O)NCc3ccco3)c3ccccc3n2)s1 | >57 | -3%
Cc1onc(-c2ccccc2Cl)c1C(=O)Nc1ccccc1C(=O)NC(C)C | >57 | -17%
CC1CCCC(NC(=O)CN2CCN(Cc3ccc(Cl)cc3)C2=O)C1C (stereo not given) | >57 | 7%
COc1cc(C)cc2c(-c3c(O)cc(O)c4c3C[C@H](C)N[C@@H]4C)cc(-c3cc(-c4c(O)cc(O)c5c4C[C@H](C)N[C@@H]5C)c4cc(C)cc(OC)c4c3O)c(O)c12 | >57 | -11%[8 µM]
CCn1c(SCC(=O)N2CCCc3ccccc32)nc2cccnc21 | >57 | -7%
CCCCCN=c1ccn(Cc2ccccc2)c2ccccc12 | >26 | ?
CCCc1nnc(NC(=O)CCC(=O)Nc2ccc(F)cc2)s1 | >57 | 2%
O=C1c2[nH]nc(-c3ccccc3O)c2C(c2ccc(F)cc2)N1Cc1ccco1 (stereo not given) | >57 | ?
COCCSc1nnc(-c2cnccn2)o1 | >57 | -5%
Cc1cccc2cccnc12 | · | -10%
Cc1ccc(C)c([N+](=O)[O-])c1 | · | -3%
Cc1cccc(N(CC(=O)Nc2ccc(CC#N)cc2)S(C)(=O)=O)c1 | >57 | ?
CC1=CC(C)(C)Nc2ccc(C)cc21 | >57 | -4%
c1ccc(-c2nnc(CSc3nncs3)o2)cc1 | >57 | -1%
Cc1nccn1CCCN1C(=O)OC2(CCCCC2)C1(C)O (stereo not given) | >57 | 14%
Cc1ccc(CC(=O)OCCNC(=O)c2cccnc2)cc1 | >57 | -2%
Cc1csc(=O)n1CC(=O)OCc1cccc2ccccc12 | >57 | 4%
COc1cc(NC(=O)N[C@H](C(=O)O)C(C)C)cc(OC)c1 | >57 | ?
CCOC(=O)CNS(=O)(=O)c1ccc(C(=O)O)cc1 | >57 | ?
CCCCc1nc2ccccc2c(=O)n1NC(=O)c1c(O)c2cccc3c2n(c1=O)CCC3 | >57 | ?
CCOC(=O)N1CCC(N2Cc3cccc(C(=O)NCc4ccc(OC)cc4)c3C2=O)CC1 | >57 | ?
Cc1ccccc1-c1cc(NCc2ccccc2)ncn1 | >57 | 17%
COC(=O)c1cccc(C(=O)Oc2cccc(Br)c2)n1 | >57 | -18%
CCCOc1ccc(N2CC(C(=O)Nc3ncccc3C)CC2=O)cc1 (stereo not given) | >57 | -17%
CSc1ncccc1C(=O)OCC(=O)N1CCOCC1 | >57 | 2%
C=N[C@H](C(=O)N[C@@H]1C(=O)N2[C@@H]1SC(C)(C)[C@@H]2C(=O)O)c1ccccc1 | >57 | ?

# Brought forward from above: four compounds, then new ones.
Compound | SmPrx2 inh | Anthrax LT inh
COC(=O)c1cccc(C(=O)Oc2cccc(Br)c2)n1 | >57 | -18%
CCCOc1ccc(N2CC(C(=O)Nc3ncccc3C)CC2=O)cc1 (stereo not given) | >57 | -17%
CSc1ncccc1C(=O)OCC(=O)N1CCOCC1 | >57 | 2%
C=N[C@H](C(=O)N[C@@H]1C(=O)N2[C@@H]1SC(C)(C)[C@@H]2C(=O)O)c1ccccc1 | >57 | ?
COc1ccc(-c2noc(-c3cc(Cl)ccc3Cl)n2)cc1OC | >57 | -14%
COc1ccccc1Cn1cnc2cccnc21 | >57 | 1%
Cc1ccc(NC(=O)C2CCCN(S(=O)(=O)c3c(C)noc3C)C2)cc1F (stereo not given) | >57 | -10%
CCN1C(=O)c2cccc3c(NC(=O)c4ccc5c(c4)OCCO5)ccc1c23 | >57 | -3%
COC(=O)NC(c1ccco1)C(C(C)=O)C(=O)OC (stereo not given) | · | ?
CN1CCN(c2ccc3nc(-c4ccc5nc(-c6ccc(O)cc6)[nH]c5c4)[nH]c3c2)CC1 | >57 | 9%[8 µM]
CCOC(=O)C1=NO[C@@]2(C=C(Br)C3(OCCCO3)[C@H]3O[C@H]32)C1 | · | -4%[8 µM]
Cc1cnc(C(=O)OCC(=O)Nc2ccc(Cl)cc2Cl)cn1 | >57 | -6%
COc1ccc(NC(=O)C2OCCc3ccccc32)c(OC)c1 (stereo not given) | >57 | -1%
O=C(CN1CCOCC1)Nc1ccccc1-c1ccccc1 | >57 | -21%
COc1ccc(C(=O)N(CN2CCCC2=O)c2cc(C)on2)cc1OC | >57 | 11%
O=C(NC1CCCCC1)C(c1ccncc1)N(C(=O)Cn1nnc(-c2cccs2)n1)C1CCCC1 (stereo not given) | >57 | -3%
C=CCN1CC[C@]23c4c5ccc(O)c4O[C@@H]2C(=O)CC[C@]3(O)[C@H]1C5 | >57&>26 | ?
Cc1ccc(NC(=O)CSc2nnc(-c3cnccn3)n2Cc2ccco2)cc1 | >57 | -8%
Cc1ccc(C)c2[nH]c(=O)c(CN(Cc3ccco3)S(=O)(=O)c3ccc4c(c3)OCCO4)cc12 | >57 | -20%
CN(C)c1ncc2nc(-c3cccs3)c(=O)n(C)c2n1 | >57 | ?
CC1=CCC2C(=O)N(c3ccc4ccccc4n3)C(=O)C2C1 (stereo not given) | >57 | 8%
Cc1cc(C)c(N2CCN(S(=O)(=O)N3CCCCCC3)CC2)c(C)c1 | >57 | -15%
O=C(Cc1cccs1)NCC1CCCO1 (stereo not given) | >57 | -3%
Cn1c(=O)[nH]c(=O)c2c1nc(Sc1ncccn1)n2CCCc1ccccc1 | >57 | 11%
CCCCCn1c(CNC(C)=O)nc2ccccc21 | >57 | -2%
C[C@@](N)(Cc1ccc(O)c(O)c1)C(=O)O | >57&>57&>57 | -9%[3.58 µM]
CCN(CCCn1c(SCC#N)nc2ccccc2c1=O)c1ccccc1 | >57 | ·
CC1CCCC(C)N1C(=O)c1cc(-c2cccs2)on1 (stereo not given) | >57 | -6%
O=C(C1CCC1)N1CCc2cc(S(=O)(=O)NC3CCCC3)ccc21 | >57 | -11%
Cc1nc(C)c(-c2ccccc2)c(=O)[nH]1 | >57 | 1%
COc1cc(C2C(C(=O)OC(C)C)=C(C)Nc3[nH]c(=O)[nH]c(=O)c32)ccc1O (stereo not given) | >57 | 7%
CCOC(=O)c1cccc(NC(=O)CN(C)S(=O)(=O)c2cnc[nH]2)c1 | >57 | -3%
CCN(CC)S(=O)(=O)c1cccc(C(=O)Nc2ccccc2)c1 | >57 | 7%
Cc1ccc(-c2ccc(=O)n(CC(=O)NCCN3CCCCC3C)n2)cc1 (stereo not given) | >57 | -10%
NC(=O)/N=C(\N)NC(=O)c1ccccc1 | >57 | -6%[8 µM]
CN1CCN(c2ncnc3ccc(-c4ccccc4C(F)(F)F)cc23)CC1 | >57 | 13µM*
COc1ccc(N(C(=O)c2cccc(OC)c2OC)C2C=CS(=O)(=O)C2)cc1 (stereo not given) | >57 | -5%
NC[C@H](CC(=O)O)c1ccc(Cl)cc1 | >57 | -13%
CCC(C)(C)C | · | -12%
O=C(CSc1nnc(COc2ccc3c(c2)CCCC3)o1)Nc1ccc(F)cc1 | · | -6%
CCCS(=O)(=O)NCc1cn2cccc(C)c2n1 | >57 | 2%
Cc1ccc(-c2cc(C(F)F)nc(N3CCC(C)CC3)n2)cc1 | >57 | 2%
O=C(O)c1cc(=O)[nH]c(=S)[nH]1 | >57 | 4%[8 µM]
COc1ccc(-c2nc3cnc(N(C)C)nc3n(-c3ccccc3)c2=O)cc1 | >11 | ?
CC(=O)N1CCc2c(sc(NC(=O)CN3C(=O)CCC3=O)c2C(N)=O)C1 | >57 | 0%
Cc1ccc(N2CC(C(=O)Nc3nccs3)CC2=O)cc1 (stereo not given) | >57 | 0%
Cc1cc(C)nc(-n2nc(C)cc2NC(=O)CN2CCc3ccccc3C2)n1 | >57 | -15%
CCOC(=O)c1ccc2c(c1)nc(SC/C(O)=C(\C#N)c1nc3ccccc3[nH]1)n2CC | >57 | 7%
Cc1onc(-c2ccccc2)c1C(=O)Nc1cccnc1 | >57 | -4%
COC(=O)C(Cc1ccc(O)cc1)NC(=O)CCC(=O)Nc1ccc(S(N)(=O)=O)cc1 (stereo not given) | >57 | ?
O=C(O)c1cc(=O)c2c(Cl)cc(Cl)cc2[nH]1 | >57&>57 | -11%&-2%
CCOc1ccccc1OCCOCCN1CC(C)OC(C)C1 (stereo not given) | >57 | 8%
O=C(NC1CCCCC1)C1CCN(S(=O)(=O)N2CCOCC2)CC1 | >57 | 3%
Cn1c(/C=N/c2nc3ccccc3[nH]2)nc2ccccc21 | >57 | -4%
Cc1onc(-c2ccccc2Cl)c1C(=O)OCn1nnc2ccccc2c1=O | · | -5%
CCc1nnc(NC(=O)C2CCCN2C(=O)NC2CCCCC2)s1 (stereo not given) | >57 | 4%
O=S(=O)(Nc1nc2ccccc2nc1NCCN1CCOCC1)c1cccc(Cl)c1 | >57 | 4%
COC(=O)c1c(C)oc2ccc(OC(=O)N3CCOCC3)cc12 | >57 | 16%
O=C(CN1CCC(n2nnc3cc(F)ccc32)CC1)Nc1ccccc1N1CCOCC1 | >57 | 3%
CCC(CC)C(=O)Nc1cc(NC(=O)C(CC)CC)cc(C(=O)O)c1 | >57 | 1%
CN(C)c1nc(N)nc(-c2ccco2)n1 | · | -8%
C=C(C)CSc1nnc([C@@H](NC(=O)OC(C)(C)C)C(C)CC)o1 (stereo not given in full) | >57 | 3%
CCCn1nnc(NC(=O)c2ccc(OCC)c(Cl)c2)n1 | >57 | -12%
ClCCOCOCCCl | · | -4%
CCCNC(=O)N1CCN(c2ncccn2)CC1 | >57 | -11%
O=C(CN1CCC(O)(c2ccc3c(c2)OCO3)CC1)OC1CCCCC1 | >57 | ?

# Screening data as filed in PubChem BioAssay.

# This is a subset; the hit share may differ from the screen's.
